# Bioassay records (PubChem BioAssay)
# Bead autofluor = flagged as autofluorescent in microsphere protease counterscreen. 3.1% of 360,000 active. AID 624483. fluorescence intensity (test concentration not listed). compound autofluorescence counterscreen, microsphere flow cytometry; active compounds read high;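 active means at least 3 SD above the mean of all compounds, about 16000 in these data; inconclusive means too few beads counted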;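 further: 100 nL of 1 mM stock went into each well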
# Mtb hypoxia rep = Mtb hypoxia fluorescent reporter inhibition | M. tuberculosis hypoxia-regulated fluorescent reporter, fluorescence | fluorescence inhibition, % (concentration not given with the values) | 0.1% of 300,000 active | AID 1159583;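 active means 35 to 45% if threefold the growth effect, above 45% if 1.5-fold the growth effect; inactive means the rest, general growth blockers included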;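 further: wells of about 50 µL received 100 nL stock; 0% = vehicle wells and 100% = reference inhibitor wells; whole bacteria with a GFP reporter of the hypoxia response; strong numbers were not always called active; many hits fall short of the cut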
# BJeLR viability = kills HRASV12-expressing BJeLR cells; inhibition, % (concentration not given with the values); BJeLR (HRASV12) viability, CellTiter-Glo ATP luminescence, 48 h; reference of the scale not given here; 0.17% of 300,000 active;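 active means replicate mean above 50%; inconclusive means above 50% but judged a plate artefact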;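 further: 50 nL library stock added to about 25 µL; numbers are from one replicate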
# RN4220 kill = kills Staphylococcus aureus RN4220 | 0.33% of 330,000 active | S. aureus RN4220 growth, OD600, 16 h | inhibition, % (test concentration not listed);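 active means z-score of -3 or lower and OD600 up to 0.18 on both plates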;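 further: plate controls were untreated cells for no effect and reference antibiotic for full effect; stock transfer was 100 nL into about 80 µL; one replicate is shown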
# PrP 5UTR inh = inhibition of PrP 5' UTR reporter expression; 0.35% of 340,000 active; AID 488862; cell-based PrP 5' UTR mRNA reporter, plate reader; inhibition, % (concentration not given with the values);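 active means every replicate at 50% or more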;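 further: 0 = median of the neutral control wells; tested in H4 reporter cells; numbers are from one replicate; inactives centre near -14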
# Sa ugtP lethal = growth inhibition of S. aureus ugtP deletion strain; S. aureus RN4220 ugtP deletion, OD600 growth, 16 h; some inactives read as strong as hits; growth inhibition, % (test concentration not listed); 0.54% of 330,000 active;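 active means z-score under -3 and OD600 up to 0.15 on both plates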;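 further: plate controls were untreated wells for no effect and antibiotic for full effect; wells of about 80 µL received 100 nL stock; the first replicate is given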
# Mtb hypoxia rep growth = also measured in Mtb hypoxia rep; calls as there; growth inhibition, %; measured here: M. tuberculosis growth (absorbance);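 0% = vehicle and 100% = reference antibiotic; read after six days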
# The depositor's hits bear a star; u = inconclusive; x = no result given; & = joins results of further samples. No enrichment for hits. Share with any hit: about 3.9%.
SMILES,Bead autofluor,Mtb hypoxia rep,Mtb hypoxia rep growth,BJeLR viability,RN4220 kill,PrP 5UTR inh,Sa ugtP lethal
CCN(C(=O)CSc1n[nH]c(-c2cc(Cl)ccc2OC)n1)C1CCS(=O)(=O)C1 (centres undefined),6028,-7,3,x,3.2,-10,0
CCOC(=O)C1=C(CC)Nc2ccccc2N/C1=N\S(=O)(=O)c1ccccc1OC,3002,6,1,x,7.5,4,5
CC(NCC(=O)NC(=O)NCCC1=CCCCC1)c1ccc(S(N)(=O)=O)cc1 (centres undefined),2904,3,-3,x,2.9,6,-1
CC=C(C)C(=O)NCCN1C2=NCC(Cc3ccc(O)cc3)N2CC1Cc1ccc(OC)cc1 (centres undefined),x,-5,-2,x,8.2,x,-2
O=C(NCCc1ccccn1)c1ccc(S(=O)(=O)N2CCCCCC2)cc1,5781,7,2,-6,1.4,-18,1
Cn1nnnc1SCC(=O)N1CCCc2ccccc21,4445,-3,2,-7,3.5,-10,0
CN(C)c1cccc2c(C=C(C#N)C#N)ccc(N(C)C)c12,11044,11,2,-3,4.2,-14,7
O=C(CN1CCCC1=O)NCCc1ccccc1,4812,0,-2,-1,3.2,-7,5
COc1ccccc1CCNS(=O)(=O)CCNC(=O)c1ccccc1,5591,3,0,0,2.8,-20,6
O=C1C=C(O)CC(c2ccco2)C1 (centres undefined),2425,3,7,-1,0.8,-10,2
Cc1ccccc1-c1nnc(-c2cccc3ccccc23)o1,3812,3,1,x,-2.5,-83,-10
Cc1ccc(C(=O)O)c(C(=O)Nc2nc(C)cs2)c1,10673,1,3,x,5.8,-22,3
CCOc1cc(C=NO)ccc1OCc1ccc(F)cc1,x,3,6,x,4.9,x,5
O=C(NN=Cc1ccc(Cl)cc1)Nc1ccccc1,x,7,6,x,1.4,x,-19
C=CCOc1ccc(C2NC(=S)NC(c3ccccc3)=C2C(C)=O)cc1OC (centres undefined),3363,1,13,2,-0.1,-23,-9
Cc1ccc(NC(=O)CSc2nnnn2C2CCCC2)cc1S(=O)(=O)N1CCOCC1,5267,11,8,x,4.9,x,2
COCc1nn2c(N)c(C#N)cnc2c1-c1ccccc1,4937,x,x,5,1.0,7,0
O=C(CSc1ccc(Cl)cc1)c1ccco1,7349,9,-1,-13,4.3,-25,81
Cc1ccc(C(=O)Nc2ccccc2-c2ccccc2)cc1S(=O)(=O)Nc1cccc(C)c1C,7794,11,5,-8,-6.2,-12,-20
O=C(CN1C(=O)CSc2ccc(S(=O)(=O)N3CCOCC3)cc21)NCc1ccc(F)cc1,4720,10,1,4,3.4,-19,1
CC(=O)OC1(c2ccc(C)cc2)CN2CCC1c1ccccc12 (centres undefined),3343,13,4,-13,-1.3,0,8
COc1ccccc1CC(=O)Nc1cccc2c1CCCC2,7073,4,4,5,3.8,10,6
O=C(CCNC(=O)c1ccccc1Cl)Nc1ccc2c(c1)OCO2,9237,4,5,5,0.8,-28,1
C/C(N)=C(/C#N)C(=O)CSc1nnnn1-c1ccc(C)cc1C,19626*,-3,8,0,2.7,-11,-4
C=CC[C@@H](CC(=O)N(CCO)Cc1ccccc1)C(=O)N[C@H](COC(=O)[C@H](CC=C)CC(=O)OC(C)(C)C)Cc1c[nH]c2ccccc12,3445,2,6,x,-0.8,-12,-17
Cc1cccc(CS(=O)(=O)Cc2ccc(C(=O)NCCc3ccccc3)o2)c1,4747,6,-3,5,1.2,-14,4
COc1ccc(Cl)cc1NC(=O)CN(C)S(=O)(=O)c1cccs1,3496,-1,5,3,5.8,-9,4
CCOC(=O)c1c[nH]c2c3c(ccc2c1=O)CCCC3,21559*,6,9,-4,5.7,-40,-14
COc1ccc(-c2nc(CS(=O)(=O)CC(=O)NC3CCC(C)CC3)c(C)o2)cc1 (centres undefined),5565,-8,4,1,0.0,-3,-13
COc1cc(NS(=O)(=O)c2ccc(NC(=S)NC(=O)c3ccc(Br)cc3)cc2)ncn1,5891,11,9,-5,22,-9,48
CC(=O)Nc1ccc(S(=O)(=O)N(C)CC(=O)OCC(=O)N2CC(C)OC(C)C2)cc1 (centres undefined),4116,6,6,-9,6.0,-16,2
COc1ccc(C(=O)Nc2ccc(Cn3ccnc3)cc2)cc1OC,3048,1,3,-14,1.7,-41,7
COc1ccc(CNC(=O)c2cc(=O)c3cc(C)c(C)cc3o2)cc1,3658,15,1,3,1.5,-25,8
CCCC(=O)Nc1sc(C)c(-c2ccc(C(C)CC)cc2)c1C#N (centres undefined),9754,-7,5,2,1.9,-2,1
CCc1nc2ccccc2c(=O)n1NC(=O)c1c(O)c2ccccc2[nH]c1=O,15421,x,x,1,x,-24,x
COC(=O)c1ccccc1NC(=O)CN1CCN(Cc2ccccc2)CC1,3693,12,5,-18,2.2,-3,5
CC(C)(C)c1ccc(NC(=O)CCNC(=O)c2ccco2)cc1,4845,9,9,-4,1.5,-21,0
CCOc1ccccc1N(C(=O)Nc1ccc(Cl)cc1)C1=NCCS1,2122,-2,-7,x,-8.0,-21,0
Nc1ncc([N+](=O)[O-])c(Oc2ccccc2F)n1,4574,1,-7,-7,9.5,-19,3
O=C(Nc1nnc(C2CC2)s1)C1CCCCC1,2982,-1,0,x,2.6,-17,3
O=C1CSC(c2cccc(F)c2)N1c1c(F)cccc1F (centres undefined),4000,12,4,3,1.1,1,10
C/C(=N/N=C1/NC(=O)CC(C(=O)Nc2ccccc2)S1)c1cccs1 (centres undefined),2226,x,x,-1,x,-18,x
COC(=O)CN1C(=O)COc2ccc(S(=O)(=O)N3CCCCCC3)cc21,5291,4,8,6,0.3,4,5
Cn1c(-c2c(N)n(CCc3ccccc3)c3nc4ccccc4nc23)nc2ccccc21,9646,-2,24,-7,-3.4,-18,-15
Cc1cccc(C(=O)Nc2ccc(C(=O)NN=Cc3cccc(C)n3)cc2)c1,x,-1,10,x,3.9,x,4
COc1ccccc1N1CCN(Cc2cc3c(cc2Br)OCCO3)CC1,5550,-3,2,3,1.0,0,3
COc1ccc(CC2c3cc(OC)c(OC)cc3CCN2C)cc1O (centres undefined),3404,7,13,-5,5.2,-6,2
Cc1c(NC(=O)CSc2ncccn2)c(=O)n(-c2ccccc2)n1C,3286,-2,-7,0,8.9,-15,23
COc1cc(/C=C2\CCCc3c2nc2ccccc2c3C(=O)O)cc([N+](=O)[O-])c1O,3213,1,10,-11,4.6,-5,-4
Cc1cc(NC(=O)c2oc3ccccc3c2C)ccc1-n1cnnn1,5805,6,7,-2,13,-33,-7
O=C(/C=C/c1cccs1)Nc1sc2c(c1C(=O)O)CCCC2,5473,x,x,-4,x,-36,x
CSc1ccccc1C(=O)N1CCN(S(=O)(=O)c2sc(C(=O)O)c(C)c2C(=O)O)CC1,3832,-4,-2,x,0.0,4,2
NCCCN1CCOCC1,7592,2,3,-3,1.8,-1,2
COC(=O)c1[nH]c2cc(OC)ccc2c1NC(=O)c1ccc2c(c1)OCO2,5845,5,17,-11,6.5,-36,-2
CCn1c(C)cc2c(c1=O)C(c1ccccc1)C(C(=O)OC)=C(N)O2 (centres undefined),23918*,4,3,14,0.3,-20,5
CN(CCNC(=O)c1ccc(CS(=O)(=O)c2ccc(Br)cc2)o1)CCc1ccccc1,x,-2,7,-25,-5.8,-17,-8
O=C(c1ccc(N2CC3CC(C2)c2cccc(=O)n2C3)c([N+](=O)[O-])c1)N1CCCC1 (centres undefined),4211,-3,12,1,2.2,-15,3
CC(=O)C1=C(C)NC(SCC(N)=O)=C(C#N)C1c1sccc1C (centres undefined),10955,0,2,-1,-2.3,-14,-1
COCc1cc(C)nc2sc(C(=O)OC(C)C)c(N)c12,2173,x,x,1,12,4,1
Cc1ccc(C)n1-c1sccc1C(=O)O,4411,-5,5,2,5.1,-5,-2
# Further compounds follow.
SMILES,Bead autofluor,Mtb hypoxia rep,Mtb hypoxia rep growth,BJeLR viability,RN4220 kill,PrP 5UTR inh,Sa ugtP lethal
Cc1cnc(C(=O)OCC(=O)Nc2ncc(Cl)cc2Cl)cn1,3696,4,0,x,4.5,-28,-2
CCOC(=O)N1CCC(Nc2c(N3CCN(c4cccc(C(F)(F)F)c4)CC3)c(=O)c2=O)CC1,10239,-7,5,-9,4.0,-12,0
COc1ccc(NC(=O)c2cc(SC)ccc2Cl)cc1,2208,7,16,2,6.1,-47,13
COc1ccc(S(=O)(=O)Oc2ccc3c(c2)O/C(=C\c2cccnc2)C3=O)cc1,23126*,14,10,-7,5.5,-16,-22
COc1cc(C(=O)NNC2=CC(=O)CC(C)(C)C2)cc(OC)c1OC,2395,-6,9,-3,-0.3,-17,6
CC(=O)Nc1ccc(C(=O)N2CCN(S(=O)(=O)c3ccc4c(c3)OCCCO4)CC2)cc1,u,6,5,x,5.7,5,8
CC1(C)CNC(=O)C=C(c2ccccc2)C1,7063,-5,0,3,2.5,-65,-1
CC(=O)Nc1ccc(S(=O)(=O)N2CCN(CC(=O)NC3CCCC3)CC2)cc1,4633,x,x,1,-0.2,1,9
Cc1ncn(-c2ccc(C(=O)Oc3ccccc3)cn2)n1,2454,-10,12,13,-0.5,-14,8
CS(=O)(=O)Nc1ccc2c(c1)nc1n2CCOC1,4222,4,1,8,1.0,-6,0
CCOc1ccccc1OCCCOc1ccc([N+](=O)[O-])cc1Cl,5163,x,x,1,10,-14,-3
O=C(COc1ccc(Br)cc1)N1CCCCCC1,10334,x,x,-8,-5.9,-24,-11
O=C(Nc1ccc(Cl)cc1)Nc1ccc(N2CCOCC2)cc1,4028,5,7,-11,3.1,-31,-12
Cc1cccc(N2CCN(C(=O)c3cc(S(=O)(=O)N4CCOCC4)cn3C)CC2C)c1 (centres undefined),4078,2,-6,13,5.9,0,11
CC1CCc2sc3c(c2C1)c(=O)n(CC(=O)O)c(=O)n3Cc1ccc(Cl)cc1 (centres undefined),3650,-7,-4,3,-3.0,-22,-9

# Three of the compounds above, field by field.
SMILES: O=C(Nc1ccc(Cl)cc1)Nc1ccc(N2CCOCC2)cc1
  Bead autofluor = 4028	Mtb hypoxia rep = 5	Mtb hypoxia rep growth = 7	BJeLR viability = -11	RN4220 kill = 3.1	PrP 5UTR inh = -31	Sa ugtP lethal = -12

SMILES: CCOC(=O)N1CCC(Nc2c(N3CCN(c4cccc(C(F)(F)F)c4)CC3)c(=O)c2=O)CC1
  Bead autofluor = 10239	Mtb hypoxia rep = -7	Mtb hypoxia rep growth = 5	BJeLR viability = -9	RN4220 kill = 4.0	PrP 5UTR inh = -12	Sa ugtP lethal = 0

SMILES: Cc1cccc(N2CCN(C(=O)c3cc(S(=O)(=O)N4CCOCC4)cn3C)CC2C)c1 (centres undefined)
  Bead autofluor = 4078	Mtb hypoxia rep = 2	Mtb hypoxia rep growth = -6	BJeLR viability = 13	RN4220 kill = 5.9	PrP 5UTR inh = 0	Sa ugtP lethal = 11

# Going on with the list:
SMILES,Bead autofluor,Mtb hypoxia rep,Mtb hypoxia rep growth,BJeLR viability,RN4220 kill,PrP 5UTR inh,Sa ugtP lethal
N#CCN1CCN(CC(=O)Nc2ccc(OCc3ccccc3)cc2)CC1,3884,4,6,2,3.5,-47,-3
O=P(O)(O)c1ccccc1OCCCCCOc1ccccc1P(=O)(O)O,8947,-13,-2,3,-6.1,-4,-8
CCOC(=O)C1C(C#N)=C(N)OC(C)=C1c1ccncc1 (centres undefined),2165,x,x,7,4.5,-3,1
CCOC(=O)C1CCCN(S(=O)(=O)Cc2ccccc2Cl)C1 (centres undefined),4021,0,4,-1,3.9,-19,6
COc1ccc(N2CCCn3c2nc2c3c(=O)n(Cc3ccccc3)c(=O)n2C)c(OC)c1,4488,3,5,11,2.4,-21,-71
NNC(=O)c1ccc(N2CCc3ccccc32)c([N+](=O)[O-])c1,4060,2,8,-9,-11,-15,0
COc1cc(C2CC(=O)NC3=C2C(=O)CC(C)(C)C3)ccc1O (centres undefined),6257,x,x,-1,-6.9,-10&-18,0
CN(C(=O)COC(=O)CNC(=O)CNC(=O)c1ccc(Cl)cc1Cl)c1ccccc1,3185,7,23,4,4.2,-24,1
Brc1ccc(C2=Nn3c(nnc3-c3cccnc3)SC2)s1,4056,x,x,7,-0.2,-4,-2
O=C(NC1CCCCC1)c1ccc(CNc2nc(=S)[nH]c3ccccc23)cc1,3305,10,3,-13,-0.5,-8,-1
COC(=O)[C@]1(Cc2ccccc2)NC(c2ccc(-c3ccccc3)cc2)C2C(=O)N(C)C(=O)C21 (some centres undefined),x,4,4,x,-1.5,x,-1
CCOC(=O)N1CCC(NC(=O)CN2C(=O)CCSc3ccccc32)CC1,5875,x,x,0,4.8,-19,-4
